CBX7 AlphaScr = inhibitors of human CBX7 binding to H3K27me3 peptide; O95931; AlphaScreen His6-CBX7 / biotin-H3K27me3 peptide binding; hits give low values; normalised signal (fraction of DMSO) (no concentration beside the values); actives 1.1% (n = 66,000); AID 1224903; in the data active = normalised signal below about 0.5;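 also: 100 nL library stock added to about 20 µL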
CBX7 AlphaScr z-score = second read-out of CBX7 AlphaScr, no call of its own (marks repeat the call); z-score; measured here: z-score of CBX7 signal; some inactives read as strong as hits; reference of the scale not given here;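 same signal on another scale; lower means less binding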
* hit, by the source's call. Not all compounds are listed; rates above refer to the full screens.

SMILES | CBX7 AlphaScr | CBX7 AlphaScr z-score
O=C(CNc1ccccc1-c1nc2ccccc2[nH]c1=O)NC1CCCCC1 | 1 | 0.66
Cc1ccc(CNC(=O)c2cc(=O)[nH]c3ccc(S(=O)(=O)N4CCCC4)cc23)cc1 | 1 | 0.21
COc1ccc(CN(C(=O)COc2c(C)cc(C)cc2C)C2CCS(=O)(=O)C2)cc1OC (stereo not given) | 0.92 | -0.083
COc1ccc(-c2cc(C#N)nc(N3CCN(C)CC3)n2)cc1 | 0.99 | -0.29
CCCOc1ccc(-c2nc(Oc3ccc(C#N)cc3)c3ccccc3n2)cc1 | 0.99 | -0.28

No new results follow: two of the compounds above.
SMILES | CBX7 AlphaScr | CBX7 AlphaScr z-score
O=C(CNc1ccccc1-c1nc2ccccc2[nH]c1=O)NC1CCCCC1 | 1 | 0.66
Cc1ccc(CNC(=O)c2cc(=O)[nH]c3ccc(S(=O)(=O)N4CCCC4)cc23)cc1 | 1 | 0.21

Pulled by compound from above, 2 records:
SMILES | CBX7 AlphaScr | CBX7 AlphaScr z-score
CCCOc1ccc(-c2nc(Oc3ccc(C#N)cc3)c3ccccc3n2)cc1 | 0.99 | -0.28
COc1ccc(CN(C(=O)COc2c(C)cc(C)cc2C)C2CCS(=O)(=O)C2)cc1OC (stereo not given) | 0.92 | -0.083

Source: PubChem (several laboratories)
